Screens (PubChem BioAssay)
VACV Venus inh – qHTS for Stage-Specific Inhibitors of Vaccinia Orthopoxvirus: Venus Reporter Primary qHTS; Potency, µM (highest dose often 36.5 µM), without a hit: top-dose activity change, negative = inhibition, usual class: inhibitors; Vaccinia virus Venus reporter expression, fluorescence; actives 0.46% (n = 330,000); active means well fitted inhibition curve with a large enough effect; inconclusive means small, poorly fitted or top-dose-only effect; inactive means no such curve, though single readings can be large or run the other way; tested in A549 cells; note: nearly all actives have a fitted effect of over 30% in size; inactives centre near -10
Vaccinia mCherry – qHTS for Stage-Specific Inhibitors of Vaccinia Orthopoxvirus: mCherry Reporter Primary qHTS; actives 0.63% (n = 310,000); AID 720579, 2013; Potency, µM (doses to about 36.5 µM), inactives show at the top dose activity change, negative = inhibition, actives largely listed as inhibitors; Vaccinia virus mCherry reporter infection, fluorescence; about a quarter of the inactives have no number; active = well fitted inhibition curve with a large enough effect; inconclusive = small, poorly fitted or top-dose-only effect; inactive = no such curve, though single readings can be large or run the other way; tested in A549 cells; note: nearly all actives have a fitted effect of over 35% in size; inactives centre near -10
* marks the source's active call; other numbers are inactive results; i = inactive; ? = inconclusive; . = not tested or not shown; & = joins results of further samples; [ ] = dose if it differs, or a comment. % is set by controls: 0 for no effect and ±100 for the full control effect; potency is the fitted concentration of half-maximal effect.

SMILES	VACV Venus inh	Vaccinia mCherry
Cc1cc(C(=O)Nc2cc(S(C)(=O)=O)ccc2Cl)no1	-6.3%	i
CC(C)CC(c1nnnn1C(C)C)N1CCN(C(=O)c2ccco2)CC1 (centres undefined)	-13.4%	-8.5%
C[C@H](NC(=O)c1nc[nH]c1C(=O)NCc1ccccc1)C(=O)OCc1ccccc1	-15.5%	-27.3%
CC(=O)c1cccc(NC(=O)c2cc(S(=O)(=O)N3CCCCC3)ccc2N2CCOCC2)c1	-4.5%	-25.2%
CCCn1nnc(NC(=O)c2cccc(OCc3ccccc3)c2)n1	?	-6.5%
CCC(C)Nc1oc(-c2ccc(COc3ccc(Cl)cc3)o2)nc1C#N (centres undefined)	-23.8%	-22.5%
Cc1ccc(OCCNC(=O)c2ccccc2SCC(=O)N2CCCC2)cc1	-6.7%	-6.9%
O=C(CSc1nnc2[nH]c(=O)cc(-c3ccccc3)n12)Nc1cc(C(F)(F)F)ccc1Cl	-5.4%	-14.3%
Cn1cnc2c1c(=O)n(Cc1ccccc1)c(=O)n2C	-8.0%	i
CC(C)CCNC(=O)c1cc(C(=O)c2cc(F)ccc2O)cn(CCC(C)C)c1=O	-1.8%	-1.7%
COC(=O)C1=C(C)N(Cc2ccccc2)C(=NCCc2c[nH]c3ccccc23)N[C@H]1c1cccc(F)c1	12.6µM*	?
COC(=O)c1c(SCC(=O)Nc2ccccc2C(F)(F)F)[nH]c2ccc(Cl)cc2c1=O	5.0%	2.5%
CCNC(=O)CN1C(=O)NC(Cc2ccccc2)(Cc2ccccc2)C1=O	-7.3%	i
Cc1cccc(Nc2ncccc2C(=O)O)c1C	-8.2%	-1.5%
O=C(/C=C/c1ccc(S(=O)(=O)NCc2ccco2)cc1)NCc1cccc(Cl)c1	?	?
CC(=O)c1c(C(C)=O)c(C)n(-c2cccc3cccnc23)c1C	4.5%	i
CCOC(=O)[C@@H]1[C@H]2COc3ccccc3[C@@H]2N2C(=O)N(c3ccc(C)cc3)C(=O)[C@@]12C	-8.4%	i
CCOc1ccc(C(=O)NCC(=O)N2CC=C(c3ccccc3)CC2)cc1OCC	-26.6%	?
COc1cc(NC(=O)c2cc(-c3cccc(O)c3)on2)cc(OC)c1OC	-19.1%	?
COc1ccc(CCC(=O)Nc2cc([N+](=O)[O-])ccc2OC)cc1	-5.7%	-8.2%
O=C(Nc1nc2ccccc2s1)c1cnccn1	-15.1%	-12.7%
COC(=O)C1=C(C)Nc2ncnn2C1c1ccco1 (centres undefined)	-6.8%	.
Cc1cc(C)cc(NC(=O)CSc2nncn3c2cc2occc23)c1	-8.3%	-16.5%
C=CCn1c(SCC(=O)c2c(N)n(C3CC3)c(=O)[nH]c2=O)nnc1-c1ccc(OC)cc1	-0.9%	i
COc1cc(OC)c(OC)cc1/C=N/Nc1ncnc2c1[nH]c1ccc(C)cc12	-6.9%	-13.0%
CCCOc1ccccc1C1CC(=O)NC(C)=C1C(=O)OCC(C)C (centres undefined)	?	.
COC(=O)c1ccccc1N/C=C1\CCc2c(c(C)nn2-c2ccccn2)C1=O	-2.3%	.
COCCN(Cc1nc2ccccc2c(=O)[nH]1)C(=O)COc1ccccc1-c1ccccc1	-3.5%	-14.7%
COc1ccc(/C=N/NC(=O)c2nonc2C)cc1	-21.8%	.
CSc1nc2ccc3nc(NC(=O)c4cccs4)sc3c2s1	-18.4%	-12.6%
Cc1cccc(Cn2c(=O)n(CC3CCC(C(=O)N4CCOCC4)CC3)c(=O)c3sccc32)c1 (centres undefined)	-13.2%	-16.6%
Cc1ccc(SCc2nc3ccccc3n2CC(=O)Nc2c(C)cccc2C)cc1	?	-17.3%
O=Cc1nc(-c2ccc(Cl)cc2)n2ccccc12	-10.8%	-14.1%
CCN(C(=O)CN1C(=O)S/C(=C\c2ccccc2OC)C1=O)C1CCS(=O)(=O)C1 (centres undefined)	-12.2%	-21.9%
COc1ccc(NC(=S)N2CCC(Cc3ccccc3)CC2)cc1	-3.0%	?
C=CCC[C@@H](CCCCC)OC(=O)/C=C/[C@@H](O)[C@H](O)C[C@@H](O)CC=C	-4.8%	-2.8%
CCN1CCN(Cc2ccc(NC(=O)c3ccc(C)c(NC(=O)C(=O)c4c[nH]c5ccccc45)c3)cc2C(F)(F)F)CC1	10µM*	11.2µM*
COCCN(CCOC)C(=S)Nc1cc(S(=O)(=O)N(C)C)ccc1C	-15.4%	-8.0%
Cc1noc(C)c1S(=O)(=O)N(C)C[C@H]1Oc2c(NC(=O)Nc3ccc4c(c3)OCO4)cccc2C(=O)N([C@H](C)CO)C[C@@H]1C	-12.0%	i
Clc1cccc(N2CCN(c3ncnc4nc[nH]c34)CC2)c1	-8.8%	-2.4%
CC(=O)Nc1ccc(-c2ccnc3c2CC(C)(C(=O)Nc2ccc4c(c2)OCO4)O3)cc1 (centres undefined)	-23.6%	-7.3%
O=c1c([N+](=O)[O-])cn(O)cc1[N+](=O)[O-]	-0.7%	i
CCNc1oc(-c2ccccc2F)nc1S(=O)(=O)c1ccccc1	-7.9%	-18.9%
COC(=O)Cn1c2c(c3cc(C)ccc31)CCCC2NC(C)c1ccccc1 (centres undefined)	-17.3%	-16.8%
COCCNC(=O)c1ccc2c(c1)S(=O)(=O)c1ccccc1C2=O	5.7%	-1.4%
COc1ccc(OC)c(CCNC(=O)CCCn2c(=O)c3cccn3c3cccnc32)c1	-9.3%	-5.0%
Cn1cc(C(=O)O)c(=O)c2cc(S(=O)(=O)N3CCCCC3)ccc21	-15.3%	i
CCOC(=O)C1=C(N)OC2=C(C(=O)CC(C)(C)C2)C12C(=O)Nc1ccccc12 (centres undefined)	-2.7%	-14.3%
CN1CC(C(=O)c2ccccc2)C(C(=O)c2ccccc2)C1 (centres undefined)	-17.4%	.
O=C(Nc1ccc(Cl)cn1)c1cnn2cccnc12	-12.9%	.
NC(COCc1ccccc1)c1csc(Nc2nncc3ccccc23)n1 (centres undefined)	-28.6%	-14.4%
C1=C(CCNc2ncnc3nc[nH]c23)CCCC1	-28.5%	-26.4%
COc1ccc(NC(=O)c2cc(-c3ccccc3Cl)on2)cc1OC	52.2%[activator]	-16.1%
C/C(=N\NC(=O)Cc1ccc(Cl)cc1)c1ccccc1O	-3.8%	?
O=C(NCc1ccccc1)C1=C[C@@H](C2CC2)C[C@@H](OCc2ccc(CO)cc2)O1	-14.4%	?
O=C(/C=C/c1cccc([N+](=O)[O-])c1)Nc1cccc(NC(=O)c2ccco2)c1	-20.1%	-22.6%
COc1ccc(NC(=S)N2CCN(C(=O)c3ccco3)CC2)c(OC)c1	-1.5%	-13.4%
Cc1ccccc1N=Nc1c(O)[nH]c2ccccc12	-2.9%	-7.9%
COc1cccc(N(C(=O)c2ccco2)C(C(=O)NC2CCCC2)c2cccnc2)c1 (centres undefined)	-7.8%	.
COc1cc(C(=O)OCC(=O)NC2CCCCC2)cc(OC)c1OC	-17.2%	i

The results go on.
SMILES	VACV Venus inh	Vaccinia mCherry
COC(=O)[C@]1(C)N[C@H](c2ccc(-c3ccc(Cl)c(Cl)c3)cc2)[C@@H]2C(=O)N(C)C(=O)[C@@H]21	?	-26.9%
COc1ccc(-c2cc(NC(C)=O)c3ncc(-c4ccc(OC)c(OC)c4)n3c2)c(OC)c1	0.9%	10.7%
C=CC(C)Sc1nc2c(c(=O)n(C)c(=O)n2C)n1Cc1ccccc1Cl (centres undefined)	-17.9%	i
CCn1nc2cc(C(=O)NCC34CC5CC(CC(C5)C3)C4)ccc2c1OC	-24.4%	-24.5%
COc1ccc(S(=O)(=O)Nc2ccc(O)c(Sc3nc4ccccc4s3)c2)cc1	-5.2%&-14.1%	-11.2%&-16.3%
Cc1ccc(N2C(=O)c3n[nH]c(C)c3C2c2ccccn2)cc1 (centres undefined)	-7.5%	-12.2%
CON=C(C(=O)NC1C(=O)N2C(C(=O)O)=C(CSc3nc(=O)c(=O)[nH]n3C)CSC12)c1csc(N)n1 (centres undefined)	-17.8%	i
O=C(O)C1CCCN(S(=O)(=O)c2ccc(Br)s2)C1 (centres undefined)	-0.6%	i
CCOC(=O)c1ccc2c(c1)sc1nc(-c3ccc(OCC)cc3)cn12	-16.6%	-2.4%
COc1ccc(OC)c(NC(=O)Cc2coc3ccc4ccccc4c23)c1	-14.7%	-25.2%
CC(=O)NC1C(OCCOc2ccc(Cl)cc2Cl)OC(COC(C)=O)C(OC(C)=O)C1OC(C)=O (centres undefined)	-6.4%	-17.6%
CC(=O)NC(NC(=S)Nc1ccccc1Br)C(Cl)(Cl)Cl (centres undefined)	-6.9%	i
COc1ccc(CN2C(=O)C(CC(C)C)Nc3ncnc(N4CCOCC4)c32)cc1 (centres undefined)	-5.7%	-11.3%
COc1ccc(CN2CCNC(=O)C2CC(=O)N(C)Cc2ccno2)c(F)c1 (centres undefined)	0.1%	-12.0%
C/C(=N\NC(=O)c1ccncc1)c1cc2ccccc2oc1=O	-8.1%	-3.0%
Cc1cc(Cl)ccc1N(CC(=O)N(C)Cc1ccccc1)S(C)(=O)=O	-9.2%	i
CCOC(=O)N/N=C(\C)c1ccccc1OC(F)F	-2.5%	0.4%
O=C(NCCCN1CCCC1=O)c1ccc(Cl)c(NS(=O)(=O)c2ccc(F)cc2)c1	-6.6%	i
S=c1[nH]nc(-c2cccc(Cl)c2)n1CCN1CCCCC1	-2.0%	-13.2%
O=C(N/N=C/c1ccc([N+](=O)[O-])s1)c1ccccc1	?	?

Gathered by group: the entries above with a CF3 group
SMILES	VACV Venus inh	Vaccinia mCherry
O=C(CSc1nnc2[nH]c(=O)cc(-c3ccccc3)n12)Nc1cc(C(F)(F)F)ccc1Cl	-5.4%	-14.3%
COC(=O)c1c(SCC(=O)Nc2ccccc2C(F)(F)F)[nH]c2ccc(Cl)cc2c1=O	5.0%	2.5%
CCN1CCN(Cc2ccc(NC(=O)c3ccc(C)c(NC(=O)C(=O)c4c[nH]c5ccccc45)c3)cc2C(F)(F)F)CC1	10µM*	11.2µM*

Additional compounds follow.
SMILES	VACV Venus inh	Vaccinia mCherry
CSc1cccc(N2CC(C(=O)Nc3ccccc3N3CCCC3)CC2=O)c1 (centres undefined)	-19.6%	-0.6%
O=C(CNC(=O)c1cccs1)NCC(=O)OCc1ccc(Cl)cc1Cl	101.2%[activator]	102.6%[activator]
CCC(C)(C)n1nnnc1C(c1cccs1)N1CCc2ccccc21 (centres undefined)	-6.2%	-23.5%
CC(C)[C@H](NC(=O)NCc1ccc(Cl)cc1)C(=O)O	-2.6%	-13.7%
CCOC(=O)C1=CCC(c2ccc(Cl)cc2)N(S(=O)(=O)c2ccc(C)cc2)C1 (centres undefined)	-4.1%	i
CCCCCCCCCCCCCCCC[N+](C)(C)CC	-8.4%	-14.2%
CCC(=O)Nc1cc(C(F)(F)F)ccc1N1CCOCC1	-12.2%	-9.6%
CC(Nc1ccccc1)c1cc(Cl)ccc1O (centres undefined)	?	.
CC1(C(=O)Nc2cccc(OC(F)(F)F)c2)Cc2c(-c3cccc(C(N)=O)c3)ccnc2O1 (centres undefined)	-10.3%	?
Cc1cc(N(C)C)c(C#N)c(NCc2ccccc2)n1	-22.5%	.
CCOC(=O)N1CCN(CC(=O)Nc2cccc(Br)c2)CC1	-14.0%	.
CC(=O)c1ccc(S(=O)(=O)N2CCC(C(=O)Nc3ncc(C)s3)CC2)cc1	-14.0%	-0.1%
O=C(Nc1ccc(Br)cn1)C1CCN(S(=O)(=O)c2cccs2)CC1	-20.9%	i
COc1ccc(CSC(=S)NNc2ccccc2)cc1	-19.7%	-11.7%
O=C(CNC(=O)c1cccc(F)c1)OCC(=O)N1CCN(C(=O)c2ccco2)CC1	0.6%	-3.1%
CCOC(=O)c1cc(NC(=O)c2ccccc2)c(=O)oc1C(F)(F)F	-5.2%	-7.9%
COc1ccc(CCCc2nnc(SCC(=O)NN)o2)c(C)c1	-16.0%	?
Cn1c(NN)nc2sc3c(c2c1=O)CCC3	-13.9%	.
CCOc1ccc(NC(=O)c2cc(S(=O)(=O)N3CCOCC3)cs2)cc1	-10.2%	-14.2%
COCCn1c(CCC(=O)O)nc2c1c(=O)[nH]c(=O)n2CC(C)C	-5.4%	-12.5%
Cc1ccc(CSc2nnc(-n3c(=O)c(C#N)cc4c(=O)n5cccc(C)c5nc43)s2)cc1	-5.8%	-2.1%
CCOc1ccc2nc(SCC(=O)NCC3CCCO3)c(C#N)cc2c1 (centres undefined)	-11.8%	-21.1%
C/C(=N\NC(=O)c1nc(C)cc(C)n1)c1ccccc1	-9.1%	-20.3%
COCCC(=O)N1CCC(Oc2ccc(C(=O)NCc3cccc(C)n3)cc2)CC1	-9.9%	i
O=C(Nc1ccccc1F)C1CCCN(S(=O)(=O)c2ccccc2)C1 (centres undefined)	-6.2%	3.3%
Cc1cc(NC(=O)c2cc(-c3ccc(Cl)cc3)on2)nn1Cc1ccc(Cl)cc1	-26.9%	i
COc1ccc(Cn2c(=O)oc3ccccc32)cc1	-10.4%	-14.5%
CN(CC(=O)Nc1cc([N+](=O)[O-])ccc1Cl)Cc1ccc(Br)cc1	-11.7%	i
